# LT uptake inh – qHTS Assay for Anthrax Lethal Toxin Internalization | Cells, anthrax lethal toxin internalization, FRET ratio (460/530) | Potency, µM (top dose mostly 40 µM), for the others: at the top dose activity change, negative = inhibition, usual class: inhibitors | 70,000 tested, 0.67% active | AID 912, 2007; active = well fitted falling ratio curve with the 530 nm signal flat; inconclusive = other ratio curves, or a change in one channel alone; inactive = flat curves in the ratio and both channels; the % refers to the ratio; also: % is scaled to controls: 0 for no effect and ±100 for the full control effect; nearly all actives have a fitted effect of over 50% in size; tested in ME-180 cells; beta-lactamase reporter
# Prx2 Sm inh – Schistosoma Mansoni Peroxiredoxins (Prx2); Schistosoma mansoni peroxiredoxin 2 (Prx2); S. mansoni Prx2 activity coupled to TGR/GSH (TGR is thioredoxin glutathione reductase), NADPH fluorescence loss, qHTS; some inactives read as strong as hits; Potency, µM; 65,000 tested, 0.07% active; AID 448, 2006; active means full or partial inhibition curve with a strong effect at the top dose; inconclusive means weaker partial or single-point curve; inactive means no accepted curve; also: series up to 57 µM; many of its hits are not listed in these tables
#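 Coupled assay in which S. mansoni TGR passes NADPH reducing equivalents via glutathione to Prx2, which reduces H2O2. Compounds were preincubated 15 min at room temperature with 25 nM TGR/50 nM Prx2 mix. Kinetic NADPH fluorescence loss (ex 365/em 450 nm) was monitored.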
# * hit, by the source's call; ? = inconclusive; / = no result given; [ ] = remark or other dose. Potency is read from the fitted curve at half-maximal effect. Not all compounds are listed (hit frequency here may not be typical).
item	structure	LT uptake inh	Prx2 Sm inh
1	Cc1occc1-c1nnc(SCC(=O)Nc2nccs2)n1CCc1ccccc1	?	>57
2	COC(=O)c1cn(CC(=O)NC2CCCCC2)c2ccccc12	-1%	>57
3	COC(=O)c1ccccc1OCC(=O)NC1CCCCC1	-15%	>57
4	COc1cccc(Oc2cncnc2-c2ccc(OC)cc2O)c1	-7%	>57
5	Cc1ccccc1-n1c(SCc2ccccn2)nc2n[nH]c(C)c2c1=N	?	>57
6	Cc1ccc(NC(=O)CCC(C(=O)O)N2C(=O)c3ccccc3C2=O)cc1 (stereo not given)	-12%	>57
7	O=C(NC1CCCCC1)C(c1ccc(F)cc1)N(Cc1ccco1)C(=O)Cn1nnc2ccccc21 (stereo not given)	-10%	>57
8	Cc1csc(N(C(=O)c2cccc(S(=O)(=O)N(C)C)c2)c2ccccc2)n1	-2%	>57
9	COc1ccccc1CNC(=O)c1cnc2ccccn2c1=O	-3%	>57
10	CSCCC(NC(=O)C1CCC(C)CC1)C(=O)N1CCN(c2ccccn2)CC1 (stereo not given)	?	>57
11	CCC(CC)C(=O)Nc1cccc(C(=O)N2CCCCCC2)c1	/	>57
12	Cc1ccc(S(=O)(=O)c2cc3c(=O)n4ccccc4nc3n(CC3CCCO3)c2=N)cc1C (stereo not given)	17%	>57
13	CCNc1ncc2nc(-c3ccc(F)cc3)c(=O)n(CCOC)c2n1	?	>57
14	CCCCn1c(C(C)NC(=O)CCC)nc2ccccc21 (stereo not given)	-10%	>57
15	Cc1c(Br)cc(C(=O)NCCCN2CCOCC2)c(C)c1C	-28%	/
16	CCOc1ccc(CNC23CN4CN(CN(C4)C2)C3)cc1	-13%	>57
17	C/C=C1\C[C@H](C)[C@](O)(CO)C(=O)OCC2=CCN3CC[C@@H](OC1=O)[C@@H]23	?	>57
18	O=C(CN1C(=O)CSC1=O)c1ccccc1	9%	>57
19	OC(CN1CCCCC1)CN(c1ccccc1)c1ccccc1 (stereo not given)	-11%	>57
20	CN(C)S(=O)(=O)c1ccc(NS(=O)(=O)/C=C/c2ccccc2)cc1	?	>57

# Structures from the list above with an aryl methoxy group:
item	structure	LT uptake inh	Prx2 Sm inh
4	COc1cccc(Oc2cncnc2-c2ccc(OC)cc2O)c1	-7%	>57
9	COc1ccccc1CNC(=O)c1cnc2ccccn2c1=O	-3%	>57

# The list goes on:
item	structure	LT uptake inh	Prx2 Sm inh
21	N[C@@H](Cc1c[nH]c2ccccc12)c1nnc(SCc2ccccc2F)o1	?	>57
22	CC[C@]1(c2ncc[nH]2)Cc2ccccc2O1	?	>57
23	OCC1OC(/C=C\c2ccccc2)C=CC1Oc1ccc2c(c1)OCO2 (stereo not given)	-22%[8 µM]	/
24	Cc1c(NC(=O)CSc2nncc3ccccc23)c(=O)n(-c2ccccc2)n1C	5%	>57
25	COCCn1c(=O)c(-c2cc(F)cc(F)c2)nc2cnc(OC)nc21	-16%	>57
26	COc1ccc(CCNC(=O)CCNS(=O)(=O)c2cccc3nsnc23)cc1OC	5%	>57
27	CCOCCn1c(N2CCN(c3ccc(OC)cc3)CC2)nc2c1c(=O)n(C)c(=O)n2C	-8%	>57
28	O=C(CC1(O)C(=O)Nc2cc(Cl)cc(Cl)c21)c1ccccc1O (stereo not given)	-5%	>57
29	CN(C(=O)c1ccc(NC(=O)C2CC=CCC2C(=O)O)cc1)c1ccccc1 (stereo not given)	4%	>57
30	Cc1ccc2c(c1)C(O)(CC(=O)c1cccnc1)C(=O)N2 (stereo not given)	1%	>57
31	COC(=O)c1ccc(-c2ccc(CNCC(O)c3ccccc3)o2)cc1 (stereo not given)	/	>57
32	O=C(NCCc1c[nH]c2ccccc12)C1CCN(c2nnc(N3CCCC3=O)s2)CC1	?	>57
33	CCN(CC)c1ccc(NC(=O)Cn2cc3c(n2)CCC(C)C3)c(C)c1 (stereo not given)	-29%	>57
34	CCOc1ccccc1-n1nnnc1SCc1nc2ccccc2s1	?	>57
35	O=C(Sc1nnc(-c2ccccc2)o1)N1c2ccccc2Sc2ccccc21	?	/
36	Oc1cccc(Nc2ccccc2)c1	13%	/
37	CC(C)Cn1c(CN(Cc2ccccc2)Cc2ccccc2)nc2c1c(=O)n(C)c(=O)n2C	5%	>57
38	CN1C(=O)NC(c2cccc(O)c2)C(C(=O)c2cccs2)C1(O)C(F)(F)F (stereo not given)	6%	>57
39	CC(=O)OC[C@@H]1O[C@H](C/C=N\OC[C@@H](O)COCc2ccco2)C=C[C@@H]1OC(C)=O	1%[8 µM]	/
40	C=CCn1c(C)cc(C(=O)CN2C(=O)c3ccccc3C2=O)c1C	-4%	>57

# Some values from the results shown.
# Entry for `CCN(CC)c1ccc(NC(=O)Cn2cc3c(n2)CCC(C)C3)c(C)c1` (stereo not given) in LT uptake inh: -29%
# Entry for `COc1ccc(CCNC(=O)CCNS(=O)(=O)c2cccc3nsnc23)cc1OC` in Prx2 Sm inh: >57

# Next section:
item	structure	LT uptake inh	Prx2 Sm inh
41	Cc1ccc(-n2c(SCC(=O)OC(C)C)nnc2-c2cnccn2)cc1	-4%	>57
42	CC(=O)N(c1ccccc1)C1SC(=O)N(c2ccccc2)C1=O (stereo not given)	2%	/
43	Cc1ccc(C(O)CN2C3=NCCN3c3ccccc32)cc1 (stereo not given)	-13%	>57
44	O=C(CCCSc1nc2ccccc2[nH]1)N1CCN(c2ccccc2)CC1	-18%	>57
45	Cn1c(C(=O)OC(C(=O)NC2CCCCC2)c2ccncc2)cc2sccc21 (stereo not given)	?	>57
46	CC1N=C2c3ccccc3N=C(SCc3cc(=O)n4ccccc4n3)N2C1=O (stereo not given)	13%	>57
47	FC(F)(F)c1nc2ncc(Cl)cc2[nH]1	?	>57
48	CCC(=O)N1CCN(c2ccc(Cl)cc2NC(=O)Cc2ccccc2)CC1	-28%	>57
49	Cc1ccnc2c(N3C(=O)C4C5C=CC(C5)C4C3=O)cccc12 (stereo not given)	-2%	/
50	CCOC(=O)C1=C(N)OC2=C(C(=O)CC(C)(C)C2)C1c1ccoc1 (stereo not given)	3%	>57
51	COc1ccc(/C(C)=N\n2cnnc2)cc1	15%	/
52	O=S(=O)(c1cc(Cl)ccc1Br)N1CCCCC1	-4%	>57
53	c1ccc(CSc2nnc(Cc3ccccn3)o2)cc1	?	>57
54	CCC(=O)Nc1ccc(S(=O)(=O)c2ccc(NC(=O)CC)cc2)cc1	?	>57
55	CCOC(=O)c1ccc(N2CSC3=C(C#N)C(c4ccc(OC)cc4OC)CC(=O)N3C2)cc1 (stereo not given)	?	>57
56	Cc1ccccc1CSCC(=O)c1c(N)n(C)c(=O)n(C)c1=O	-8%	>57
57	Nc1ncnc2c([C@@H]3O[C@@H](CO)[C@H](O)[C@@H]3O)nsc12	?	>57
58	CS(=O)(=O)N(CC(=O)Nc1cccnc1)c1ccc2c(c1)OCCO2	?	>57
59	COc1ccc(-c2nnco2)cc1OC	-6%	>57
60	CC(=O)N=c1sc2c3ccccc3ccc2n1C	8%	>57
61	O=C(NCCOc1ccccc1)c1ccc2c(c1)OCO2	14%	>57
62	Cc1c(C)n(C(=O)CSc2nncn2C)c2ccccc12	-6%	/
63	CCN(CC(=O)Nc1ccc2c(c1)OCCO2)CC(=O)Nc1cc(C)on1	0%	>57
64	O=C(CCC1CCCC1)N1CCN(C(=O)c2ccco2)CC1	-2%	/
65	O=C(O)c1ccc2c(c1)nnn2C1CCCCC1	-4%	>57
66	CN1CCN(CC(=O)N2CCn3c4c(c5cc(C6CCCCC6)ccc53)CCCC42)CC1 (stereo not given)	?	>57
67	CCOc1ccc(NC(=O)CCNc2c(N3CCCC3)c(=O)c2=O)cc1	5%	>57
68	NC(=O)c1c(N)sc2c1CCCCC2	?	>57
69	CCN(CC)S(=O)(=O)c1cccc(C(=O)NCC(=O)OCC(=O)NCc2ccccc2)c1	9%	>57
70	Cc1cccc(-n2ncc3c(NC(C)C)ncnc32)c1	?	>57
71	CCOC1(OCC)N=C(N)C2(C#N)C(c3cccc(OC)c3OC)C12C#N (stereo not given)	-11%	>57
72	C=CCC1(O)C(=O)N2C(=C1C(=O)N1CCOCC1)c1ccccc1CC2(C)C (stereo not given)	11%	/
73	c1csc(CNc2nc(-c3ccc4c(c3)OCO4)nc3ccccc23)c1	?	>57
74	CCOc1ccc2[nH]c(=O)c(CN(Cc3ccccc3)C(=O)N3CCCC3)cc2c1	0%	>57
75	COc1ccccc1NC(=O)C1=C(C)Nc2ncnn2C1c1ccc(C)o1 (stereo not given)	-15%	>57
76	O=C1c2oc3ccccc3c(=O)c2C(c2cccc(Br)c2)N1Cc1ccco1 (stereo not given)	-2%	>57
77	Nc1nnc(CC(=O)NCc2ccccc2)s1	5%	>57
78	O=C(CN1CCOCC1)NC1C2CC3CC(C2)CC1C3 (stereo not given)	0%	>57
79	COc1cccc(Cn2c(=O)c(-c3cc(F)cc(F)c3)nc3cnc(N4CCNCC4)nc32)c1	?	>57
80	N=c1c2c(-c3ccccc3)c(-c3ccccc3)n(Cc3ccco3)c2ncn1Cc1ccco1	?	/

# Retrieved by compound from the list above:
item	structure	LT uptake inh	Prx2 Sm inh
48	CCC(=O)N1CCN(c2ccc(Cl)cc2NC(=O)Cc2ccccc2)CC1	-28%	>57
61	O=C(NCCOc1ccccc1)c1ccc2c(c1)OCO2	14%	>57

# More records:
item	structure	LT uptake inh	Prx2 Sm inh
81	COCCn1c(SCC(=O)NCCc2ccccc2)nnc1-c1ccco1	?	>57
82	CCOc1ccccc1NC(=O)C1CCN(c2ccc(S(=O)(=O)N3CCCC3)cc2)CC1	-3%	>57
83	O=C(O)c1ccc2oc(SCC(=O)N3CCCCC3)nc2c1	2%	>57
84	O=C(Nc1nncs1)C1COc2ccccc2O1 (stereo not given)	9%	>57
85	CC(=O)ON(C(C)=O)S(=O)(=O)c1ccc(Cl)cc1	?	>57
86	O=C(O)C1CC(=O)N(Cc2ccccc2)C1 (stereo not given)	-3%	>57
87	Nc1cc(N)nc(SCC(=O)Nc2ccc3c(c2)OCCCO3)n1	-1%	>57
88	CCN1CCCC1CN(Cc1cc2ccc(C)c(C)c2[nH]c1=O)C(=O)Nc1ccccc1OC (stereo not given)	2%	>57
89	CCSc1nnc(Cc2cc(=O)[nH]c(=O)[nH]2)n1-c1ccc(F)cc1	11%	>57
90	O=C(OCCN1CCOCC1)c1cccnc1	-6%	>57
91	CN(C(=O)c1ccncc1)C1CCS(=O)(=O)C1 (stereo not given)	10%	/
92	Cc1nc2c(-c3ccccc3)c(C)nn2c(C)c1CCC(=O)N1CCC2(CC1)OCCO2	3%	>57
93	CCOC(=O)c1cc(-c2cc3ccccc3o2)n[nH]1	-13%	>57
94	CCC(C)NC(=O)c1cnn2c(C)c3c(nc12)CCCC3 (stereo not given)	12%	>57
95	Cc1ccc2nc(NC(=O)c3cccs3)sc2c1	?	>57
96	CCCCc1nc2ccccc2c(C(=O)O)c1C	-2%	>57
97	CC(C)(C)NC(=O)c1ccc2c(c1)N(CC(=O)N1CCN(c3ccc(F)cc3)CC1)C(=O)C(C)(C)O2	15%	>57
98	O=C(CNC(=O)c1ccco1)OCc1c(F)cccc1Cl	12%	>57
99	CCOC(=O)c1cc2cc(-c3c(C(=O)OCC)oc4cc(O)cc(O)c4c3=O)ccc2o1	?	>57
100	COc1ccc(N2CCN(CCNC(=O)C3CCN(S(=O)(=O)c4cccs4)CC3)CC2)cc1	-14%	>57
101	CC1(C)CCCC2=C1CC1C(=O)N(c3ccccc3)C(=O)C1C2 (stereo not given)	-17%	>57
102	O=C(O)CC1(C(=O)O)CCCCC1	-3%[8 µM]	>57
103	CC(=O)n1c2ccccc2c2c(C#N)c(N3CCCCC3)sc21	/	>57
104	Cc1c(NC(=O)C(C)Sc2nnc(-c3ccccc3)o2)c(=O)n(-c2ccccc2)n1C (stereo not given)	1%	>57
105	Cc1cc(SCC(=O)OCC(=O)N2CCN(C(=O)c3ccco3)CC2)c(C)cc1Br	6%	>57
106	CCOc1cccc(-c2nc3cc(C)ccc3o2)c1	?	>57
107	COc1ccc(NC(=O)CSc2nc(C)cc(C(F)(F)F)n2)cc1	-17%	>57
108	C=CC(=O)OCCOCCOCCOCCOC(=O)C=C	?	/
109	CC(C)c1nnc(NC(=O)CN(C)S(=O)(=O)c2ccc3c(c2)OCCO3)s1	-1%	>57
110	CC(C)(C)c1cc(O)ccc1O	?	>57
111	O=C(O)CCSc1ncnc2nc[nH]c12	-8%[8 µM]	>57
112	CC(=O)Nc1nc2ccccc2n1Cc1ccccc1C	-11%	>57
113	O=c1c2cc(N3CCOCC3)ccc2[nH]c(=S)n1CC1CCCO1 (stereo not given)	7%	>57
114	CC(=O)O[C@H]1CSC[C@H]1NC(=O)c1ccccc1	-3%	>57
115	C=CCOc1ccc(CC2C(=O)N(C)C(=O)N(C)C2=O)cc1	?	>57

# 4 entries from above, with each value named:
37: CC(C)Cn1c(CN(Cc2ccccc2)Cc2ccccc2)nc2c1c(=O)n(C)c(=O)n2C
  LT uptake inh: 5% | Prx2 Sm inh: >57
29: CN(C(=O)c1ccc(NC(=O)C2CC=CCC2C(=O)O)cc1)c1ccccc1 (stereo not given)
  LT uptake inh: 4% | Prx2 Sm inh: >57
47: FC(F)(F)c1nc2ncc(Cl)cc2[nH]1
  LT uptake inh: ? | Prx2 Sm inh: >57
2: COC(=O)c1cn(CC(=O)NC2CCCCC2)c2ccccc12
  LT uptake inh: -1% | Prx2 Sm inh: >57

# Assay outcomes deposited in PubChem by National Center for Advancing Translational Sciences (NCATS).
